Compound activity as filed in PubChem.
UUG fidelity = alters start codon recognition fidelity in yeast; S. cerevisiae UUG-firefly luciferase reporter, luminescence/redox ratio; activity score, % at 18.7 µM; 350,000 compounds, 0.13% hits; AID 602363;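 active = replicate mean at a twofold rise or more, about +100% in these data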;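 note: firefly luciferase made from a UUG start codon reports start codon fidelity; reporter light over untreated wells divided by growth signal over untreated wells; some hits fall short of that in this replicate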
eIF4H inh = inhibitors of RNA binding by human eIF4H; Q15056; eIF4H fluorescence polarization binding assay; inhibition, % at 35 µM; 290,000 compounds, 0.94% hits; AID 2012;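 active = 50% or more with normal probe brightness, or confirmed in later tests; inconclusive = above 50% with abnormal brightness, or retests that disagree; inactive = below 50% or failed in later tests; about a fifth of its hits are not listed in these tables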;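 note: calls also rest on retests at 20 µM and on dose response follow-up; 0% = protein and probe with vehicle and 100% = probe without protein; strong numbers were not always called active; many hits fall short of the cut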
MT1-MMP act inh = inhibitors of human MT1-MMP activation; P50281; HT1080 RFP-PRO-GFP cells, GFP/RFP ratio fluorescence, overnight; percent of plate control window, DMSO zero; GFP/RFP ratio change, % at 20 µM; 360,000 compounds, 0.061% hits; AID 651647;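 active = GFP/RFP ratio change of at least 30% with cell ATP level not reduced by more than half and red fluorescence within 50% of control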; note: strong numbers were not always called active
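Assay system: HT1080 cells carrying an RFP-PRO-GFP reporter | Dosing: Single dose of 20 µM compound, 1% DMSO final | Incubation: Cells overnight before dosing, compound overnight, 37 °C, 5% CO2 | Evaluation: GFP/RFP fluorescence ratio | Control set: DMSO and RFP-L50D-GFP cell wells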
CSC inhib = cancer stem cell inhibition. cancer stem cell-like cells viability, luminescence. AID 2717. 300,000 compounds, 1.1% hits. inhibition, % at 7.5 µM;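 active = mean at 75% or more and at least half the replicates too; inconclusive = mean and replicates disagree; tested in HMLE shEcad cells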;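 note: 0% = median of negative and 100% = median of positive control wells; the first replicate is given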
PABP polyA inh = PABP-poly(A) binding inhibition. P11940. PABP-poly(A) RNA binding, fluorescence polarization. inhibition, % at 35 µM. 290,000 compounds, 1% hits;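 active = 50% or more with normal probe brightness, or confirmed in later tests; inconclusive = above 50% with abnormal brightness, or retests that disagree; inactive = below 50% or failed in later tests; about a fifth of its hits are not listed in these tables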;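 note: calls also rest on retests at 20 µM and on dose response follow-up; controls were probe without protein and protein plus probe with vehicle; some compounds called inactive have numbers as strong as hits; many hits fall short of the cut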
Target sequence (P11940 whole entry, looked up): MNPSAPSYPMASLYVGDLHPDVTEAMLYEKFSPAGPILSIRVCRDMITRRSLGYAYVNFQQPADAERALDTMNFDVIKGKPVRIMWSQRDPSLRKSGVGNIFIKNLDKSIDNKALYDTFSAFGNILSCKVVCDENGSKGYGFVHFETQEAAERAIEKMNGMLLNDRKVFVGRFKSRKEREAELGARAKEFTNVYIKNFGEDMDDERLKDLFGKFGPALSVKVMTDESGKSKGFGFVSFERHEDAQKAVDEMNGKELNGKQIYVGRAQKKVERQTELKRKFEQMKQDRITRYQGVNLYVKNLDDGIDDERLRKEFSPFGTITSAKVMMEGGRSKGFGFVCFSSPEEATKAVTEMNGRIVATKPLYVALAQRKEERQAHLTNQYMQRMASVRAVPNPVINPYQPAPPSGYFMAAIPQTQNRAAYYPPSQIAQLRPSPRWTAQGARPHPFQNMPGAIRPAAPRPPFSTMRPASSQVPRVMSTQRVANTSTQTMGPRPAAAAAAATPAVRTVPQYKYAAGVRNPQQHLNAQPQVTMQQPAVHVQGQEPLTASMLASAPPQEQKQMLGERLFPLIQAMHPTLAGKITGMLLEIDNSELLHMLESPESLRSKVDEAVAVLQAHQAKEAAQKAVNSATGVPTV
HIV Env fusion = HIV envelope-mediated fusion inhibition; inhibition, % at 12.3 µM; AID 651610; 360,000 compounds, 1.1% hits; HeLa-JRFL Env/CEM21 cell fusion, luciferase;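 active = mean replicate inhibition score of at least 50 and every replicate individually at or above 50; inconclusive = only one of the two criteria met; inactive = mean below 50 and not all replicates reaching 50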;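 note: 0% = plate neutral controls and 100% = maraviroc near 300 nM; one replicate is shown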
Rce1 inh = inhibitors of yeast Ras-converting enzyme | AID 2563 | yeast membranes, quenched prenylated peptide cleavage fluorescence | 290,000 compounds, 0.27% hits | Q03530 | calls only;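 active = fall in fluorescence gain of 50% or more versus controls, with final raw signal at or below 3038400; inconclusive = same 50% fall but final raw signal above 3038400; inactive = fall in fluorescence gain under 50%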;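 note: plate controls were neutral control wells for no effect and wells lacking membranes for full effect; tested at 10 µM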
eIF4H inh retest = recorded beside eIF4H inh, whose call it bears; inhibition, %; compound at 20 µM; confirmation average;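 mean of two retest wells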
PABP polyA inh retest = second read-out of PABP polyA inh, no call of its own (marks repeat the call); inhibition, %; compound at 20 µM; confirmation repeats;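 mean of two retest wells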
MT1-MMP act inh RFP = also measured in MT1-MMP act inh; calls as there; RFP signal change, %; measured here: RFP expression control read;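 0 = vehicle wells; hits needed this value within 50% of zero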
The depositor's hits bear a star; i = inactive; u = inconclusive; x = not tested or not shown; & = joins results of further samples.

SMILES	UUG fidelity	eIF4H inh	MT1-MMP act inh	MT1-MMP act inh RFP	CSC inhib	PABP polyA inh	HIV Env fusion	Rce1 inh	others
O=C(O)c1cccc(S(=O)(=O)Nc2cccc3ccccc23)c1	-6.7	-0.1	0.2	2.1	-11.2	-1.5	-9.4	i
COc1ccc(CN2C[C@H](O)COC[C@@H]3O[C@H](CC(=O)NCc4ccncn4)CC[C@H]32)cc1	-10.5	x	0.2	0.2	x	x	u	x
CCC(C)NC(=O)CNC(=S)N(CCCN1CCOCC1)Cc1cccs1 (stereo not drawn)	-15.7	-0.7	-1.8	-2.3	10.4	-2.6	1.5	i
CNC(=O)c1ccc(OC2CSC2)cc1	-20.6	-1.0	-6.4	2.2	x	-3.8	-35.3	i
COc1cccc(C2C(C(C)=O)=C(O)C(=O)N2CCc2c[nH]c3ccccc23)c1 (stereo not drawn)	-10.5	6.1	2.1	-4.1	-3.0	0.5	x	i
O=C(CNCc1cccs1)Nc1cc(S(=O)(=O)N2CCCC2)ccc1Cl	22.0	-5.0	10.8	-4.1	-10.5	12.0	27.7	i
CC(=O)c1ccc(N2CCN(C(=O)Cn3cnc(S(=O)(=O)N4CCCCC4)c3)CC2)cc1	-11.7	-8.3	-1.5	-2.4	x	7.7	-2.0	i
C[C@H](OC(=O)n1ccnc1)[C@@H]1O[C@@]2(C)CCC[C@@H]1O2	-12.5	x	4.8	3.3	8.9	x	5.8	x
CCOC(=O)c1c(-c2ccco2)csc1NC(=O)CSc1nnc(N)s1	-14.3	53.9*	0.8	-3.4	-8.6	8.0	x	i	eIF4H inh retest=87.3*;PABP polyA inh retest=49.9
CCCOc1ccc(-c2nnn(CC(=O)N3CCC(C)CC3)n2)cc1	-12.9	-1.4	3.1	-3.5	-6.2	2.4	x	i
COc1ccc(NC(=O)CCN2CCCC(C)C2)cc1 (stereo not drawn)	-6.5	-6.8	1.2	7.0	-1.5	1.0	x	x
CCc1ccc(NC(=O)CC2C(=O)N(c3cccc(OC)c3)C(=O)N2CCOC)cc1 (stereo not drawn)	-5.6	-6.4	1.9	1.1	-14.2	-3.6	4.0	i
CCOC(=O)c1ccccc1OCc1cc(/C=N/NC(=O)c2ccncc2)ccc1OC	-13.9	-4.5	-1.9	-5.8	-1.2	-2.9	14.8	i
C=CCn1c(C(CC)CC)nc2ccccc21	-26.2	-3.1	-2.0	1.0	-7.7	-2.4	10.9	i
COc1ccccc1S(=O)(=O)N(C)C[C@@H]1OCc2cnnn2CCCC(=O)N([C@@H](C)CO)C[C@H]1C	-14.5&8.4	x	-2.5	1.1	x	x	3.9	x
CCOC(=O)Cc1csc(/C(=N/O)C(N)=O)n1	2.3	1.5	0.2	-1.6	x	3.9	-28.3	i
O=C(CN1CCCCC1)Nc1nc(-c2ccccc2)cs1	-15.8	6.1	0.2	-1.2	x	4.1	-19.1	i
Cc1sc(-c2c(C#N)c(N)nc3c2CCCCCC3)cc1[N+](=O)[O-]	-13.4	x	-0.9	3.2	-6.7	x	14.0	i
Cc1cc(C(=O)NN)c(Cl)cc1Cl	-11.9	7.1	-2.3	1.7	-16.8	6.3	-1.5	i
CCOc1ccc(OCC)c(NC(=O)C2CCN(c3nn4c(=O)cc(C)nc4s3)CC2)c1	10.1	8.9	2.2	1.4	11.2	6.6	x	i
COc1ccc(-c2oc3ncn4nc(Cc5ccccc5)nc4c3c2-c2ccc(OC)cc2)cc1	-23.7	-5.3	3.8	1.7	8.4	0.4	0.5	i
CC(c1ccon1)N(C)Cc1c(C(=O)N(C)Cc2ccccc2)nc2ccccn12 (stereo not drawn)	-6.3	0.0	-6.2	-0.8	-8.6	8.2	7.4	i
c1ccc(CCn2nnnc2CN2CCN(C3CCCC3)CC2)cc1	-14.5	-5.5	1.0	4.2	7.3	30.0	x	i
Cc1noc(NS(=O)(=O)c2ccc(NC(=O)CSc3nc4c(cc3C#N)CCCCC4)cc2)c1C	-14.1	-0.3	-4.4	-0.2	3.9	8.0	11.4	i
COc1ccccc1N1CCN(C(=O)Oc2ccccc2)CC1	2.7	-2.2	-0.3	4.7	-0.8	5.4	x	i
Cc1ccccc1CNC(=O)C1CCCN(c2nnc(C)c3c(C)n(-c4ccccc4)nc23)C1 (stereo not drawn)	-0.4	-12.7	-9.2	-6.3	10.6	-1.2	11.2	i
CCCCCCOc1ccc(/C=N/NC(=O)C2CC2)cc1	-10.6	-4.4	-3.9	4.0	-4.5	-6.9	-29.1	i
COc1ccc(C2/C=C\CN(S(=O)(=O)c3ccc(C)cc3)[C@H](Cc3ccccc3)C(=O)N2Cc2ccc(F)cc2)cc1 (stereo partly drawn)	-26.6	-6.6	-9.5	-13.2	2.1	-15.1	x	i
C=CCNC(=O)/C(=C\c1ccc(OC)cc1)NC(=O)c1ccc([N+](=O)[O-])cc1	x	9.3	-1.5	-2.2	1.8	-2.8	-12.2	i
C[C@@H](NC(=O)c1nc[nH]c1C(=O)NCc1ccc(CNC(=O)OC(C)(C)C)cc1)c1ccccc1	-7.8	x	0.9	-16.3	4.5	x	-16.0	x
Cc1ccccc1-n1c(SCC(=O)Nc2ccccc2Cl)nc2n[nH]c(C)c2c1=N	-7.3	-2.5	2.4	-5.0	15.5	-11.9	23.9	i
CCOc1cc(C(=O)N[C@@H](C)C(=O)N2CCC3(CC2)NCCc2[nH]cnc23)cc(OCC)c1OCC	-8.7	-2.8	2.6	4.9	-11.2	4.3	6.0	i
CCCc1cc(NCCCN(C)C)n2c(nc3ccccc32)c1C#N	-12.6	0.9	-12.2	-6.9	-9.8	14.0	21.9	i
CN(C)CCNC(=O)/C(=C/c1ccc(-c2cccc([N+](=O)[O-])c2)o1)NC(=O)c1ccccc1	x	-8.9	-0.2	-2.6	9.5	-6.9	-3.9	i
CC(=O)c1cccc(NC(=O)C2C3C=CC(C4CC34)C2C(=O)O)c1 (stereo not drawn)	-0.8	-4.1	6.8	6.6	x	-5.5	x	i
O=C(Cn1c(=O)c2c3c(sc2n(Cc2ccccc2)c1=O)CCCC3)NCCO	-7.8	-0.8	0.1	2.1	2.7	-3.2	3.2	i
Cc1cc(=O)[nH]c(Nc2cccc(Cl)c2C)n1	-7.6	-4.6	6.0	0.0	-11.3	4.0	-3.1	i
COC(=O)c1sc(N2CCN(Cc3ccccc3)CC2)nc1N	-19.2	-3.9	3.4	-2.3	3.1	-3.5	-12.5	i
O=C(NCc1ccco1)c1ccc(NC(=O)C2COc3ccccc3O2)cc1 (stereo not drawn)	-6.5	-5.3	1.3	-1.9	-1.2	-2.7	x	i
CC(=O)/C(=N\Nc1ccccc1Cl)Sc1nnc(-c2ccccc2)n1-c1ccccc1	x	-1.3	-6.3	-6.4	x	7.4	15.0	i

Random excerpt: 2 records from the list.
SMILES	UUG fidelity	eIF4H inh	MT1-MMP act inh	MT1-MMP act inh RFP	CSC inhib	PABP polyA inh	HIV Env fusion	Rce1 inh	others
COc1ccccc1S(=O)(=O)N(C)C[C@@H]1OCc2cnnn2CCCC(=O)N([C@@H](C)CO)C[C@H]1C	-14.5&8.4	x	-2.5	1.1	x	x	3.9	x
CC(=O)c1cccc(NC(=O)C2C3C=CC(C4CC34)C2C(=O)O)c1 (stereo not drawn)	-0.8	-4.1	6.8	6.6	x	-5.5	x	i

(listing goes on)
SMILES	UUG fidelity	eIF4H inh	MT1-MMP act inh	MT1-MMP act inh RFP	CSC inhib	PABP polyA inh	HIV Env fusion	Rce1 inh	others
CC(=O)Nc1ccc(NC=C(C#N)C#N)cc1	-23.2	-9.9	-6.7	-0.3	-7.4	2.4	-3.2	i
COc1cc(CC(=O)OCC(=O)Nc2ncc(Cl)cc2Cl)cc(OC)c1OC	0.7	3.8	-2.5	0.8	-16.4	10.9	x	i
CS(=O)(=O)c1ccc(Nc2nc(C(N)Cc3ccc(Cl)cc3)cs2)cc1 (stereo not drawn)	-14.2	x	-7.5	-6.1	x	x	-10.8	x
CSCCC(NS(=O)(=O)c1cccs1)C(=O)NCc1ccc(C)cc1 (stereo not drawn)	-5.1	-4.7	0.9	0.0	23.5	-3.5	-5.7	i
CC(OC(=O)Cc1n[nH]c(=O)c2ccccc12)C(=O)Nc1cccc([N+](=O)[O-])c1 (stereo not drawn)	x	1.6	1.6	0.5	-8.1	-17.9	9.2	i
COc1ccc(NC(=O)C2CCCCN2S(=O)(=O)c2ccc(F)cc2)c(OC)c1 (stereo not drawn)	2.0	-4.8	8.0	1.5	-8.0	-1.5	-76.2	i
COc1cccc(-n2nc(-c3ccnn3-c3cccc(Cl)c3)c(=O)n(C)c2=O)c1	-0.4	-6.2	-4.1	-6.4	10.7	-1.7	25.9	i
COC(=O)c1ccccc1NC(=O)CNc1cc(OC)c(OC)cc1C	x	8.3	-1.4	-2.5	-3.2	16.6	10.5	i
CC1CCCN(Cc2nc3c(c(=O)n(C)c(=O)n3C)n2CCc2ccccc2)C1 (stereo not drawn)	2.2	-14.5	3.7	2.1	1.2	9.9	x	i
Cc1cccc(C(=O)Nc2nnc(S(=O)(=O)N3CCC(C)CC3)s2)c1	-12.9	-11.7	0.3	-1.3	-5.1	7.1	-7.9	i
COc1ccc(CC(=O)Nc2ccc(/C(C)=N/NC(=O)c3cccc([N+](=O)[O-])c3)cc2)cc1	-14.6	-5.9	7.1	0.4	-2.7	1.1	x	i
CN(C(=O)CSc1nnc(Nc2ccccc2)s1)C1CCS(=O)(=O)C1 (stereo not drawn)	x	-6.7	1.8	3.3	2.9	-0.9	12.8	i
Cc1ccc(O)c(CNCCNCc2cc(C)ccc2O)c1	2.8	x	x	x	-16.6	x	27.5	i
Cc1cc(C)c(C)c(S(=O)(=O)NCc2ccc(C(=O)N3CCN(C)CC3)cc2)c1C	10.8	-7.9	0.4	1.8	30.9	-1.3	-59.0	x
CC(C)C(=O)Nc1c2c(nn1-c1ccccc1)CSC2	-1.1	-8.7	-3.2	-3.3	-3.3	-2.0	2.1	i
O=c1cc(N2CCN(Cc3ccccc3)CC2)c(-c2ccccc2)n[nH]1	-19.6	5.3	-3.5	-4.4	-10.1	0.9	2.4	x
CCOc1ccccc1NC(=O)NCc1ccccc1	x	u	2.2	-1.5	-7.0	56.9	-9.3	i	PABP polyA inh retest=49.6
CCOc1ccc(CCNC(=O)c2nn(C)c3c2CS(=O)(=O)c2ccccc2-3)cc1	-5.3	-3.5	-2.8	-5.0	-5.9	-9.7	18.4	i
CCN(CC)c1ccc(NC(=O)CCc2nnc3ccc(N4CCCC4)nn23)c(C)c1	-11.8	-6.2	-4.2	-1.0	x	6.0	-20.1	i
O=C(Cc1ccccc1)NNS(=O)(=O)c1ccc([N+](=O)[O-])cc1	-9.4	5.7	0.8	-1.5	2.3	9.2	-5.1	i
COc1ccc(NC(=S)NCCCc2ccccc2)cc1	x	18.0	-0.2	0.4	-2.8	-11.4	22.0	i
COc1ccc(N=C2SCC(=O)N2Cc2ccccc2)cc1	x	-2.1	0.4	-4.5	-4.8	2.3	7.1	i
CCCCc1ccc(NC(=O)C2CCN(S(C)(=O)=O)CC2)cc1	-15.8	1.1	8.0	5.6	11.5	0.4	-26.8	i
Cc1cccc(CSCCNC(=O)CN2C(=O)c3ccccc3S2(=O)=O)c1	-2.0	-5.7	-0.3	1.6	-6.0	2.5	-11.4	i

An excerpt; count on the stated rates, not on these rows.
